Screening results from PubChem.
AID504770: growth inhibitors of E. coli YBA685 in a screen for V. cholerae RctB (chromosome II replication) inhibitors | E. coli YBA685 rctB-dependent plasmid, OD600 growth, 3 h; active compounds read low | z-score (concentration not given with the values) | actives 0.27% (n = 130,000);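 active = z-score under -2 on both plates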;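 note: wells of about 30 µL received 100 nL stock; score is relative to mean and SD of the test wells; the first replicate is given; strong numbers were not always called active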
Ba CapD inh: CapD enzyme inhibition; purified CapD enzyme, fluorescence intensity read-out; active compounds read low; some hits fall short of the stated cut; z-score (no concentration beside the values); actives 0.23% (n = 140,000);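 active = z-score under -4 in either of two replicates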;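 note: stock transfer was 100 nL into about 40 µL; score is relative to mean and spread of the plate; one replicate is shown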
The depositor's hits bear a star. This is a subset; rates above refer to the full screens.

Results for CCCCS(=O)(=O)N1CCN(C(=S)c2ccc(OC)cc2)CC1 ?
AID504770: 0

How did CCNS(=O)(=O)c1ccc(NC(=O)C2CC(=O)N(C(C)(C)C)C2)cc1 (centres undefined) do in these assays?
AID504770: -0.7

What do the screens show for `CCc1nc(NCc2ccccc2)c(C#N)c2c1COC(C)(C)C2`?
AID504770: -0.4; Ba CapD inh: 5.94

How did CCOC(=O)c1[nH]c(COc2ccc(C#N)cc2)c(C(=O)OCC)c1C do in these assays?
AID504770: 0.15

How did CCOC(=O)c1nc(N2CCC3(CC2)OCCO3)c2c3c(sc2n1)CCCC3 do in these assays?
Ba CapD inh: 4.89

How did CC(=O)C1=C(C)NC(SCC(=O)c2ccccc2)=C(C#N)C1c1sccc1C (centres undefined) do in these assays?
Ba CapD inh: -0.325

What do the screens show for `Cn1ccc(-c2nc3ccccc3s2)n1`?
AID504770: -0.65; Ba CapD inh: 0.415

How did N#Cc1c(Cl)cccc1Oc1ccc(S(=O)(=O)NCCc2ccc(Cl)cc2Cl)cc1 do in these assays?
Ba CapD inh: -0.63

What do the screens show for `O=C(Nc1nnc(C2=COCCO2)o1)c1cccc2ccccc12`?
AID504770: -1.5

How did c1ccc(NCc2cccs2)nc1 do in these assays?
AID504770: -0.7

What do the screens show for `CCC(Sc1nnnn1-c1ccccc1)C(=O)Nc1ccc(S(N)(=O)=O)cc1` (centres undefined)?
AID504770: 1.35; Ba CapD inh: -0.315

What do the screens show for `Cc1cc(C2C(=O)CC(=O)CC2c2ccccc2)on1` (centres undefined)?
AID504770: -0.55; Ba CapD inh: 0.745

Results for Nc1nc2nonc2n2nnnc12 ?
Ba CapD inh: 5.96

How did O=C(CSc1nc(-c2ccccc2)cc(=O)[nH]1)c1ccccc1 do in these assays?
AID504770: 1.45

How did CN(C)CCOC(=O)C12CC3CC(CC(C3)C1)C2 do in these assays?
AID504770: -0.85; Ba CapD inh: -0.85

How did O=c1oc2cc(OCc3ccc(F)cc3)ccc2cc1-c1nc2ccccc2s1 do in these assays?
Ba CapD inh: 0.12

What do the screens show for `C(=Nc1ccc(-c2csnn2)cc1)c1cccnc1`?
Ba CapD inh: 0.275

What do the screens show for `O=P(NC1CCCCC1)(NC1CCCCC1)Oc1ccccc1`?
AID504770: 0.25

What do the screens show for `CC(=O)N1Cc2ccccc2C(C)CC12CCCC2` (centres undefined)?
AID504770: 0.95

What do the screens show for `CCOC(=O)c1c(NC(=O)C(C)Sc2nncn2C)sc2c1CCCC2` (centres undefined)?
AID504770: -0.25

What do the screens show for `O=C(O)c1cc2cc(Br)ccc2oc1=O`?
Ba CapD inh: -0.15

How did CC(=O)O/N=C(\N)c1ncon1 do in these assays?
AID504770: 0.1; Ba CapD inh: 0.32

How did CCOC(=O)c1c(CN2CCCCC2)n(-c2ccccc2)c2cc(Br)c(OC)cc12 do in these assays?
AID504770: -0.2; Ba CapD inh: 0.385

What do the screens show for `CCc1ccc(NC(=O)Cn2c(C(=O)OC)cc3occc32)cc1`?
AID504770: 2; Ba CapD inh: -0.79

How did CCCOc1ccc(-c2nc(N3CCOCC3)c3ccccc3n2)cc1 do in these assays?
Ba CapD inh: 0.805

What do the screens show for `Cc1cccc(N2CCN(C(=O)CN3C(=O)/C(=C\c4cccc(F)c4)Oc4ccccc43)CC2)c1C`?
AID504770: -0.55; Ba CapD inh: 72.8

How did CCC(C(=O)NC1CCCC1)n1c(SCc2cccc(F)c2)nc2ccncc21 (centres undefined) do in these assays?
AID504770: 1.9; Ba CapD inh: -1.09

How did CCCN1C(=O)/C(=C/c2ccc(O)c(OC)c2)SC1=S do in these assays?
AID504770: 1.2; Ba CapD inh: 4.08

What do the screens show for `Cc1cc(C(F)(F)F)nn1CC(=O)Nc1ccc(CC#N)cc1`?
AID504770: -0.25; Ba CapD inh: 0.005

How did Oc1c(Cl)cc(Cl)cc1C1Nc2cc(C(F)(F)F)ccc2-n2cccc21 (centres undefined) do in these assays?
AID504770: 0.15; Ba CapD inh: 8.88

What do the screens show for `O=C(c1cccc(I)c1)N1CCN(c2ccccc2O)CC1`?
AID504770: -1; Ba CapD inh: -0.83

What do the screens show for `O=C(CSc1nc2ccccc2[nH]1)N(c1ccccn1)c1ccccn1`?
AID504770: 0.65

What do the screens show for `N#Cc1ccccc1NC(=O)c1coc2ccccc2c1=O`?
AID504770: -0.15

What do the screens show for `O=C(NCCCCCC(=O)N1CCN(c2cnccn2)CC1)OCc1ccccc1`?
Ba CapD inh: 9.53

Results for CC(C)(C)c1cc(C(c2ccc(F)cc2)N2CCN(CCO)CC2)cc(C(C)(C)C)c1O (centres undefined) ?
AID504770: -1.1; Ba CapD inh: -1.02

How did Cc1cc(Br)c2[nH]cc(CCN)c2c1 do in these assays?
AID504770: -0.2; Ba CapD inh: -0.13

How did Cc1ccc(N2NC3(CC(C)CC(C)(C)C3)NC2=S)cc1C (centres undefined) do in these assays?
AID504770: 0.6; Ba CapD inh: 0.2

How did O=C(NCC1CCCO1)c1ccccn1 (centres undefined) do in these assays?
AID504770: -0.8; Ba CapD inh: -0.22

Results for OCCOc1nc(N2CCOCC2)nc(N2CCOCC2)n1 ?
AID504770: -0.9; Ba CapD inh: -0.18

Results for Cc1cccc(-n2c(C)nc3cc(C(=O)NCCN4CCOCC4)ccc32)c1 ?
AID504770: -0.85; Ba CapD inh: 0.605

What do the screens show for `O=C(CC(C(=O)c1ccccc1)n1cccn1)c1ccccc1` (centres undefined)?
AID504770: 2.15; Ba CapD inh: 0.24

Results for CCOC(=O)c1ccc(Nc2nc3nonc3nc2NC)cc1 ?
Ba CapD inh: -1.49

How did CC(=O)Oc1c(Sc2ccccc2)c(C)nn1C(C)(C)C do in these assays?
AID504770: -1.5; Ba CapD inh: -0.09

What do the screens show for `CS(=O)(=O)NCC(c1cccnc1)N1CCN(Cc2ccccc2)CC1` (centres undefined)?
AID504770: 0.05; Ba CapD inh: 0.15

Results for CC(C(=O)N1CCOCC1)C1SC(=O)NC1=O (centres undefined) ?
AID504770: -0.35

How did CCN1CCN(c2ccc(NC(=O)[C@H](Cc3ccccc3)N3Cc4ccccc4C3=O)cc2)CC1 do in these assays?
AID504770: 1.2; Ba CapD inh: -0.73

How did O=C1OC(c2ccccc2)OC(=O)C1=Cc1cccs1 (centres undefined) do in these assays?
AID504770: -1.45; Ba CapD inh: -0.67

How did COc1cccc(/C=N/NC=O)c1 do in these assays?
AID504770: -0.55

An excerpt taken from the entries so far, for reference:
What do the screens show for `C(=Nc1ccc(-c2csnn2)cc1)c1cccnc1`?
Ba CapD inh: 0.275

What do the screens show for `O=P(NC1CCCCC1)(NC1CCCCC1)Oc1ccccc1`?
AID504770: 0.25

What do the screens show for `CC(=O)N1Cc2ccccc2C(C)CC12CCCC2` (centres undefined)?
AID504770: 0.95

What do the screens show for `CCOC(=O)c1c(NC(=O)C(C)Sc2nncn2C)sc2c1CCCC2` (centres undefined)?
AID504770: -0.25

What do the screens show for `O=C(O)c1cc2cc(Br)ccc2oc1=O`?
Ba CapD inh: -0.15

How did CC(=O)O/N=C(\N)c1ncon1 do in these assays?
AID504770: 0.1; Ba CapD inh: 0.32

How did CCOC(=O)c1c(CN2CCCCC2)n(-c2ccccc2)c2cc(Br)c(OC)cc12 do in these assays?
AID504770: -0.2; Ba CapD inh: 0.385

Remaining list, next part:
How did S=C(SCc1cn2ccccc2n1)N1CCOCC1 do in these assays?
AID504770: -1.3; Ba CapD inh: -0.38

How did COCC(C)NC(=O)NC1CC(=O)N(c2ccc(F)cc2)C1 (centres undefined) do in these assays?
AID504770: 0.5

How did CC1=C(C(=O)OC2CCCC2)C(c2cc3c(cc2Br)OCO3)C2=C(CC(C)(C)CC2=O)N1 (centres undefined) do in these assays?
Ba CapD inh: 4.1

Results for CCN(CC)S(=O)(=O)c1ccc(N(C)Cc2ccc(C(F)(F)F)cc2)nc1 ?
AID504770: 0.6

How did CCN1C(=O)N(CC)C2C1N(CC)C(=O)N2CC (centres undefined) do in these assays?
Ba CapD inh: -0.215

What do the screens show for `CCC(=O)N1CC(C)C(=O)N(C(=O)CC)c2ccccc21` (centres undefined)?
AID504770: -0.2; Ba CapD inh: 0.36

What do the screens show for `O=C1NCCCCC1NS(=O)(=O)c1ccc(-c2ccccn2)s1` (centres undefined)?
AID504770: -0.95; Ba CapD inh: 2.52

How did Cc1onc(-c2ccccc2Cl)c1C(=O)C(C#N)c1ccccn1 (centres undefined) do in these assays?
AID504770: -1.55

What do the screens show for `N#CC1=C(N)Oc2n[nH]c(-c3cccs3)c2C1c1ccccc1OC(=O)N1CCOCC1` (centres undefined)?
Ba CapD inh: 0.855

Results for c1csc(-c2noc(CSc3ccc4ccccc4c3)n2)c1 ?
AID504770: -0.3

How did CCCN1CCC(N(C2CC2)S(=O)(=O)c2ccc(NS(=O)(=O)c3ccc(NC(C)=O)cc3)cc2)CC1 do in these assays?
Ba CapD inh: -0.365

Results for Cc1ccc(S(=O)(=O)NCc2ccc(C(=O)NC3CCC(C)CC3)cc2)cc1 (centres undefined) ?
AID504770: 0.65; Ba CapD inh: 0.45

How did Cc1[nH]c(-c2ccc(F)cc2)cc1C(=O)N1CCCC(C)C1 (centres undefined) do in these assays?
AID504770: 1.1; Ba CapD inh: -0.76

How did CCC(=O)N(CCC1(c2ccc(OC)cc2)CCOC(C)(C)C1)Cc1ccc(Cl)cc1 (centres undefined) do in these assays?
Ba CapD inh: -1.39

How did COc1ccccc1C(=O)NCCCn1cc(Br)c(C)n1 do in these assays?
AID504770: -0.55; Ba CapD inh: 1.03

What do the screens show for `COc1ccc(C(=O)NCCC2=CCCCC2)cc1`?
AID504770: 1; Ba CapD inh: 0.435

Results for N/C(=N\OC(=O)Nc1ccccc1)c1ccc(C2SCCS2)cc1 ?
Ba CapD inh: 0.005

How did COC(=O)c1ccc(S(=O)(=O)NCc2ccc(S(N)(=O)=O)cc2)n1C do in these assays?
AID504770: -0.55; Ba CapD inh: 0.61

What do the screens show for `Fc1ccc(Cn2cnc3ccccc32)cc1`?
AID504770: -1.6; Ba CapD inh: 0.34

What do the screens show for `CCOC(=O)/C(C#N)=C/NC1CCCCNC1=O` (centres undefined)?
AID504770: 1.85; Ba CapD inh: 0.08

Results for CCOc1ccc(CCCC(=O)O)cc1C ?
AID504770: -0.45

Results for O=C(Nc1ccccc1)Nc1c[nH]c(=O)[nH]c1=O ?
AID504770: -1.05; Ba CapD inh: -0.095

What do the screens show for `O=C(Nc1ccc(O)c(-c2nc3ccccc3s2)c1)C1CCCCC1`?
AID504770: -0.35; Ba CapD inh: inactive

Results for COc1cc(C2C(C(=O)OCCOc3ccccc3)=C(C)NC3=C2C(=O)CCC3)cc(OC)c1OC (centres undefined) ?
Ba CapD inh: 15.7

How did COc1ccc(-c2cc(C(F)(F)F)nc(NCc3cccnc3)n2)cc1OC do in these assays?
AID504770: -0.5; Ba CapD inh: 71

What do the screens show for `C=CCNC(=S)NNC(=O)c1ccc(S(=O)(=O)N(CCC)CCC)cc1`?
Ba CapD inh: 0.565

What do the screens show for `CC(NC(=O)c1ccc2c(=O)n3c(nc2c1)CCCCC3)c1ccccc1` (centres undefined)?
AID504770: -2.95; Ba CapD inh: 1.84

How did C=CCn1c(C)cc(C(=O)COC(=O)c2ccccc2O)c1C do in these assays?
AID504770: 0.95

What do the screens show for `CN1C(=O)NC(=O)/C(=C\c2ccc(O)cc2)C1=O`?
AID504770: -0.7; Ba CapD inh: 0.21

What do the screens show for `Cc1cc(NC(=O)CSc2nccc(=O)[nH]2)no1`?
AID504770: -1.1; Ba CapD inh: 14.7

Results for CCC(C)C(NC(=O)c1cc(C)oc1C)C(=O)O (centres undefined) ?
AID504770: 0.45

Results for COc1ccc(C(=O)COC(=O)c2cccc(N3C(=O)C4CC=CC(C)C4C3=O)c2)cc1 (centres undefined) ?
Ba CapD inh: -0.075

How did CC1CCCC(C)N1C(=O)c1ccccc1NS(=O)(=O)c1ccc(F)cc1 (centres undefined) do in these assays?
AID504770: -0.05; Ba CapD inh: 0.065

How did COCCNC(=S)N1CCC(c2nc(-c3ccc(N(C)C)cc3)no2)CC1 do in these assays?
AID504770: -0.7

What do the screens show for `CCc1ccccc1-n1nnc(C(=O)NCc2cccs2)c1N`?
AID504770: -0.2

Results for CCN(CC)CCn1c(=N)n(CCO)c2ccccc21 ?
AID504770: 1.45; Ba CapD inh: -0.105

Results for N#CCSc1nc2ccccc2c(=O)n1-c1ccccc1 ?
AID504770: 0.2

Results for Cc1cc(N2CCCC2=O)cc(C)c1CN1C(=O)c2ccccc2C1=O ?
AID504770: 0.25; Ba CapD inh: 0.245

Results for O=C(Cc1c(F)cccc1Cl)Nc1ccc(N2CCOCC2)cc1N1CCOCC1 ?
AID504770: -1.45

Results for Cc1ccc2[nH]c(=O)c(CNc3ccc(N4CCCCC4)cc3C(=O)N3CCOCC3)cc2c1 ?
AID504770: 0.75; Ba CapD inh: -0.54

Results for Cc1cccc(NC(=O)Nc2noc3c2COc2ccccc2-3)n1 ?
AID504770: 0.65; Ba CapD inh: -0.175

Results for CC(C)(C)c1ccc(C(=O)c2cccs2)s1 ?
Ba CapD inh: -1.07

How did CN(Cc1ccccc1)S(=O)(=O)c1cc2c3c(c1)CCC(=O)N3CCC2 do in these assays?
AID504770: 0.6

How did C=CCn1c(=NC(C)=O)sc2cc(F)ccc21 do in these assays?
AID504770: -0.15
